Bioassay records (PubChem BioAssay)
KCNQ2 pot: potentiators of rat KCNQ2 potassium channel | 0.54% of 310,000 active | B-score at 10 µM | Potassium voltage-gated channel subfamily KQT member 2 (Rattus norvegicus), O88943 | CHO-K1 KCNQ2, FluxOR thallium flux fluorescence; hits give high values | AID 2239, 2010;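 active = fluorescence ratio B-score at least 3 SD of library B-scores, with initial fluorescence B-score within 3 SD, cut at about 5.3 in these data; same plate scores as AID 2156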;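 also: B-score of peak minus minimum over baseline fluorescence ratio after K+ and Tl+ stimulus; positive B-score means potentiation of KCNQ2 with more thallium influx and brighter signal; only the inactives scoring about 0 or higher are listed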
Target sequence (O88943 whole entry, looked up): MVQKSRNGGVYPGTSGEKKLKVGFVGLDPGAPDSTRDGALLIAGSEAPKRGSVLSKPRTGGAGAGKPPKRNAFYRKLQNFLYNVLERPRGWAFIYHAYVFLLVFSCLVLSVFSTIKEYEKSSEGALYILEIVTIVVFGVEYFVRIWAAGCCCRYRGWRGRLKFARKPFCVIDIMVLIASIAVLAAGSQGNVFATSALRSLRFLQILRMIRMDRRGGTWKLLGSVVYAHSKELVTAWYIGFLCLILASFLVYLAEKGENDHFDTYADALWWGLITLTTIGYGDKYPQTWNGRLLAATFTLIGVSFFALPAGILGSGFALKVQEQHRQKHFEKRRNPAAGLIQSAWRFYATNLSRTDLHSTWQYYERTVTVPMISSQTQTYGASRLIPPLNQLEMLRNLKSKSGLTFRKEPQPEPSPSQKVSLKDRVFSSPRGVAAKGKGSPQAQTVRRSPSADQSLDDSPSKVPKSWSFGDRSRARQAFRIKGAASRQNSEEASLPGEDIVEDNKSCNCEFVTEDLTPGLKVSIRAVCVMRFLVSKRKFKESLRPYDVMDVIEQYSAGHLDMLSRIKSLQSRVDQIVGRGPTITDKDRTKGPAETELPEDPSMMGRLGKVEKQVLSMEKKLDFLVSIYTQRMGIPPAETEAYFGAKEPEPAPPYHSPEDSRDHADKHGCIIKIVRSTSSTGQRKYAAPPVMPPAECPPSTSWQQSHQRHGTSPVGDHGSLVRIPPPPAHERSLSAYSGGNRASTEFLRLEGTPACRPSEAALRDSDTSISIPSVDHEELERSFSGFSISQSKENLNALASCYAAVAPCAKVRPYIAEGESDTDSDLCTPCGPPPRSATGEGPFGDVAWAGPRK
KCNQ2 pot baseline: further read-out of KCNQ2 pot, marked with its call; B-score; compound at 10 µM; measured here: initial fluorescence intensity artifact check;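 brightness before thallium and not channel activity; 0 = typical well and far values either way flag optical interference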
Numbers without * were called inactive. Only part of the results is shown. The share of hits here may be higher or lower than overall.

KCNQ2 pot	KCNQ2 pot baseline	smiles
0.38	1.6	S=c1[nH]nc(-c2ccco2)n1/N=C/c1c(Cl)cccc1Cl
1.1	-0.05	O=C(NCc1cccc(C(F)(F)F)c1)c1ccc[nH]1
1.6	-0.79	COc1ccc(/C=C/C(=O)Nc2ccc(-n3nncc3-c3ccc(OC)c(OC)c3)cc2)cc1OC
0.62	0.01	CCOc1ccc(NC(=O)CCc2ccc(C)o2)cc1
0.56	3.1	COc1ccc(C(=O)NC(=S)Nc2nc(C)cc(C)n2)cc1Br
0.24	-1.8	COc1cc(C2C(C(=O)c3ccc(C)o3)=C(O)C(=O)N2CCc2ccccc2)ccc1O (stereo not given)
0.06	0.1	CCCn1cc(CN2CCC(n3nccc3NC(=O)C(OC)c3ccccc3)CC2)c(C)n1 (stereo not given)
0.02	0.29	Cc1ccc2c(c1)N(CC(=O)NC1CCC(C)CC1)C(=O)c1cccnc1O2 (stereo not given)
1.1	-1.6	COc1ccc(CCCc2nnc(SCC(=O)Nc3cc(C)ccc3C)o2)cc1
0.01	0.69	Cc1ccc(NC(=O)c2cc3nc(C)cc(C)n3n2)cc1
0.01	-0.09	CCN(C(=O)CN1CCN(c2ccccc2OC)CC1)c1c(N)n(Cc2ccccc2)c(=O)[nH]c1=O
1.1	1.4	COc1ccc(/C=C/C(=O)c2c(O)cc(C)oc2=O)c(OC)c1
1.1	-0.47	O=C(/C=C/c1ccc(OCc2cccc(Cl)c2)cc1)N1CCOCC1
1.7	-0.02	CCn1ncc(C2=NOC(C(=O)Nc3cccnc3)C2)c1C (stereo not given)
0.3	-0.5	Cc1ccccc1CNC(=O)C1CCC(=O)N(C2CCCCCC2)C1 (stereo not given)
0.27	0	Cc1cc(C)c2c3c(sc2n1)C(=O)N(c1ccccc1C)CC(=O)N3
0.68	-0.07	COc1ccc(N2CCN(c3ccc(N4C(=O)CC(C)C4=O)cc3[N+](=O)[O-])CC2)cc1 (stereo not given)
0.12	1.2	O=C(COC(=O)c1cccs1)NC1CCCCC1
0.3	-0.03	CCSc1nnc(NC(=O)[C@@H](NC(=O)c2ccccc2)C(C)C)s1
1.3	-0.6	O=C(CN(c1cccc([N+](=O)[O-])c1)S(=O)(=O)c1ccccc1)NCc1cccnc1
0.67	-1.2	COc1ccc(N(CC(C)C)S(=O)(=O)c2nnc(NC(=O)CC(C)C)s2)cc1
0.94	-0.03	CCC(C)(C)n1nnnc1C(c1ccc(F)cc1)N1CCN(C(=O)c2ccco2)CC1 (stereo not given)
1.4	-2.3	O=C(OC(c1ccc(NS(=O)(=O)c2ccccc2)cc1)(C(F)(F)F)C(F)(F)F)c1ccccc1
0.76	-0.76	Cc1c(NC(=O)/C(C#N)=C/C2CC=CCC2)c(=O)n(-c2ccccc2)n1C (stereo not given)
0.85	0.15	CCOc1ccccc1C(=O)OCC(=O)Nc1ncc(C(F)(F)F)cc1Cl
0.3	1.7	COc1ccc(-c2csc(N(CCCN(C)C)C(=O)c3ccc(C(C)(C)C)cc3)n2)cc1
0.38	-0.25	COc1ccc(N(C(=O)CNC(=O)c2ccco2)C(C(=O)NC2CCCC2)c2ccco2)cc1 (stereo not given)
1.4	0.3	Cc1noc(C)c1COC(=O)c1ccc2c(c1)S(=O)(=O)c1ccccc1C2=O
2.2	1.3	Cc1ccc(NC(=O)Cc2ccc(-n3cccc3)cc2)c(C)c1
1.2	-1.4	COc1ccc(NC(=O)CN2C(=O)C(C)SC(C)C2=O)cc1 (stereo not given)

An excerpt from further up, as a working copy:
KCNQ2 pot	KCNQ2 pot baseline	smiles
0.38	1.6	S=c1[nH]nc(-c2ccco2)n1/N=C/c1c(Cl)cccc1Cl
1.1	-0.05	O=C(NCc1cccc(C(F)(F)F)c1)c1ccc[nH]1

The results go on:
KCNQ2 pot	KCNQ2 pot baseline	smiles
1.5	0.56	CC(NC(=O)C(Cc1ccccc1)N1C(=O)C2C3CCC(C3)C2C1=O)c1ccccc1 (stereo not given)
0.63	-0.53	C=CCn1c(SCC(=O)Nc2nnc(C)s2)nnc1-c1cccnc1
0.02	0.13	Cc1cccc(C(=O)N[C@H](C(=O)OCC(=O)NC(=O)c2cccn2C)C(C)C)c1
0.07	0.04	O=C1CCCN1CCCNS(=O)(=O)c1ccc(F)c(F)c1
0.44	0.28	COC(=O)NN=C1CCC(c2ccccc2)CC1 (stereo not given)
0.13	0.08	O=C(O)CSc1nc2ccc(Cl)cc2[nH]1
0.45	0.26	COc1ccc(/C=N/NC(=O)CNC(=O)COc2ccccc2)cc1
0.3	-0.12	Cc1nnc(SCCN2CCOCC2)n1-c1cccc(Cl)c1
1.8	-0.15	CC(Oc1ccc(Br)cc1)C(=O)Nn1c(=S)[nH]c2ncccc2c1=O (stereo not given)
3.5	-0.51	Nc1nc(-c2cccnc2)nc2sc3c(c12)CCCC3
2.2	0.77	CCOC(=O)N1CCN(C(=O)CNC(=O)c2nn(-c3ccc(OC)c(OC)c3)c(=O)c3ccccc23)CC1
0.64	-0.2	O=C(CN1CCN(Cc2ccccc2)CC1)N1CCCc2ccccc21
0.68	-1.3	Cc1cccc(OCc2nnc(SCC(=O)N3CCN(C(=O)c4ccco4)CC3)n2C)c1C
1.6	-0.93	O=C(Nc1ccon1)c1ccccc1F
1.2	-0.18	COC(=O)C1(C)NC(c2cccs2)C2C(=O)N(c3ccc(F)cc3)C(=O)C21 (stereo not given)
9.4*	-0.09*	COc1cccc(/C=N/NC(=O)CSc2ccccc2C)c1O
0.57	-0.22	O=C(COC(=O)c1ccco1)NCc1cccs1
2.8	1.5	Cc1ccc(NC(=O)CSCC(=O)Nc2nnc(C)s2)cc1
1.5	-0.11	O=C(Nc1ccc2c(c1)OCO2)c1ccc(Cl)s1
0.63	0.31	Cn1c(-c2ccccc2)c(/C=N/NC(=O)c2cccnc2)c2ccccc21
0.9	-2.1	CCn1cc(C(=O)O)c(=O)c2cc(F)c(N3CCN(C(=O)Nc4ccccc4)CC3)cc21
0.42	0.23	Cc1ccc(S(=O)(=O)N2CCN(C(=O)COC(=O)/C=C/c3ccc(F)cc3)CC2)c(C)c1
0.75	0.98	O=C(Nc1ccc2oc(=O)ccc2c1)c1cc([N+](=O)[O-])ccc1N1CCOCC1
1.6	0.29	COc1ccccc1C(=O)Nc1ccc(N2CCN(S(C)(=O)=O)CC2)cc1
0.59	-0.72	CC1CCCN(CCCNC(=O)CCn2nc(-c3ccccc3)ccc2=O)C1 (stereo not given)
1.4	-1.1	CC(C)(C)C1(C)OC(=O)C(=Cc2ccc(OCC(=O)Nc3ccccc3)cc2)C(=O)O1 (stereo not given)
0.4	-2.1	Cc1c(NC(=O)C(C)OC(=O)/C=C/c2ccc(OC(F)F)cc2)c(=O)n(-c2ccccc2)n1C (stereo not given)
0.05	0.62	Cc1nn(CCCC(=O)NCc2ccc(Cl)cc2)c(C)c1[N+](=O)[O-]
0.62	-2.6	O=C(N/N=C/c1ccccn1)c1cc(-c2ccccc2Cl)n[nH]1
0.39	-1.4	CCC1=NN2C(=N)/C(=C\c3ccc(OCCOc4ccc(NC(C)=O)cc4)c(OC)c3)C(=O)N=C2S1

(list continues)
KCNQ2 pot	KCNQ2 pot baseline	smiles
0.65	1.9	CC(C)c1ccc(N(C)C(=O)Cc2c(C(=O)O)n(C)c3ccccc23)cc1
0.11	-0.99	COc1cc2c(cc1NC(=O)Cn1cnc3c1c(=O)n(C)c(=O)n3C)oc1ccccc12
0.56	0.27	CCS(=O)(=O)N1CCC(C(=O)NCc2ccccc2OC)CC1
0.29	-0.03	Fc1ccccc1-c1nc(-c2ccccc2)no1
2	0.89	CC(=O)Cc1nsc(Nc2ccc3c(c2)OCCO3)n1
0.52	-0.03	CCSc1nc2ccc(OC)cc2cc1C#N
2.3	-1.3	CN1C(C(=O)NCc2ccccc2)CC2Cn3c(nc4cc(Cl)c(Cl)cc43)C21 (stereo not given)
0.68	-2.8	CCCc1cc(=O)oc2c(C)c(OC3CCCCC3=O)ccc12 (stereo not given)
1.1	-1.6	Cc1cccc(C)c1C(=NCCCN(C)C)c1ccccc1
0.02	1.5	CCOc1ccc(CNS(=O)(=O)c2cc(-c3cc(C)no3)ccc2OC)cc1OC
0.01	1.3	O=C(OCc1nnc(-c2ccccc2)o1)C1CC(=O)N(Cc2ccco2)C1 (stereo not given)
0.8	-0.07	c1ccc(-n2ncc3c(N4CCN(CCOc5cccc6ccccc56)CC4)ncnc32)cc1
0.54	0.09	CCCCNc1ccc(C(=O)Nc2cccc(C)n2)cc1[N+](=O)[O-]
1.2	-0.91	COCCn1cnnc1SCC(=O)Nc1ccc(Br)cc1F
1.4	-1.1	Cc1cc(C)n2nc3nc4c(cc3c2n1)CCCC4
1.1	0.08	O=C(O)c1cc(-c2ccco2)nc2cc3ccccc3cc12
0.09	0.55	Cc1cc2nc(CS)[nH]c2cc1C
0.5	-0.02	O=C(NCCCN1CCOCC1)c1ccc2c(c1)N(Cc1cccc(Cl)c1)C(=O)c1ccccc1S2=O (stereo not given)
0.25	-1.4	COc1ccccc1C(=O)NCCC(=O)N(C)CC(=O)Nc1ccccc1Br
2.6	0.32	CCOC(=O)C1CCCN(C2=NC(=O)/C(=C/c3ccc(OC)c(OC)c3)S2)C1 (stereo not given)
0.02	-0.51	O=C(CN1CCCCCC1)Nc1ccc(Cl)cc1F
0.47	0.04	CC(C)C(=O)Nc1nnc(-c2ccco2)s1
0.26	-0.76	C#Cc1ccc(CN2CCN(CCCc3ccccc3)C(CCO)C2)cc1 (stereo not given)
6.6*	-0.42*	Nc1[nH]n2c(=O)cc(-c3ccccc3)nc2c1N=Nc1ccccc1
0.67	0.66	COc1ccc(OC)c(NC2=NC3(CCCC3)N=C(N)N2)c1
0.39	0.82	COC(=O)[C@H](C)NC(=O)NCc1ccco1
1.9	-1.3	CCOC(=O)C1=C(C)Nc2nc3ccccc3n2C1c1cccs1 (stereo not given)
0.13	1.5	CC(=O)N1CCN(S(=O)(=O)c2cccc(C(=O)Nc3ccc4c(c3)OCO4)c2)CC1
1.9	1.4	COc1ccc2c(c1)OC(O)(C(F)(F)F)CC2=O (stereo not given)
0.36	0.96	O=C(Nc1ccc(Nc2ccccc2)cc1)c1ccccc1

(listing goes on)
KCNQ2 pot	KCNQ2 pot baseline	smiles
1.8	0.05	CC(C)CN1C2CCCC1CC(NC(=O)c1ccc([N+](=O)[O-])cc1)C2 (stereo not given)
0.9	0.46	COc1cccc(N2CCN(c3ncccn3)CC2)c1
1.1	-0.31	NNC(=O)CNC(=O)c1ccc(F)cc1
1.7	-0.15	O=c1nc2sc3ccccc3n2c(=O)n1-c1ccc(Cl)cc1
0.02	-0.06	Cc1ccc(S(=O)(=O)NCCCCCC(=O)Nc2ccccc2)cc1
0.07	-1	c1ccc2c(c1)oc1c(Nc3ccc(CN4CCOCC4)cc3)ncnc12
0.76	-1.9	CCn1c(C)nc2cc(S(=O)(=O)C(F)F)ccc21
0.55	-1.2	CCCC(O)(c1ccc(Cl)cc1)C(CN1CCOCC1)c1ccccc1 (stereo not given)
0.24	-1.3	COC(=O)[C@H](CCSC)NC(=O)Nc1ccc(OC)cc1
0.39	1.8	CC(=O)c1ccc(NC(=O)CSc2nc3nc(C)cc(C)n3n2)cc1
1.1	0.51	CNC(=S)N/N=C/c1c(C(=O)OC)cnn1-c1ccc(F)cc1F
1.6	0.86	O=C(CSc1ccc(F)cc1)Nc1ccc2c(c1)C(=O)NC2=O
1.6	0.49	CN1CCN(C(=O)/C=C/c2ccc(C#N)cc2)CC1
1.9	0	C/C(=N\Nc1c(Cl)c(Cl)nc(C(=O)O)c1Cl)c1ccc(O)cc1
0.8	-0.79	Cc1ccc(C(=O)O)cc1S(=O)(=O)NCC1CCCO1 (stereo not given)
0.93	0.2	O=C(N/N=C/c1c(F)c(F)c(F)c(F)c1F)c1ccc(Cn2cc(Br)cn2)o1
0.05	-0.8	Cc1ccc(C(=O)NCCc2n[nH]c(=S)n2C)cc1
0.6	0.36	C/C(=C/C#N)Nc1ccc(C)cc1
1.1	0.02	COC(=O)c1ccc(NC(=O)C2CCCCC2C(=O)O)cc1 (stereo not given)
2.2	-0.33	COc1ccccc1N1CCN(C(c2cccs2)C(C)NC(=O)C(=O)N2CCOCC2)CC1 (stereo not given)
0.58	0.01	CC1CCCC(NC(=O)COC(=O)c2ccccc2NC(=O)c2ccco2)C1C (stereo not given)
1.8	0.42	Cn1cnc(S(=O)(=O)NC2CCN(Cc3c(F)cccc3Cl)CC2)c1
0.43	0.18	CCOC(=O)c1ccccc1NC(=O)COC(=O)CSc1ccccc1
0.89	-0.9	Fc1cccc(/C=N/Nc2ccc(Cl)nn2)c1

Molecules from the list above that have an aryl thioether with sulfur outside any ring:
KCNQ2 pot	KCNQ2 pot baseline	smiles
1.1	-1.6	COc1ccc(CCCc2nnc(SCC(=O)Nc3cc(C)ccc3C)o2)cc1
0.3	-0.03	CCSc1nnc(NC(=O)[C@@H](NC(=O)c2ccccc2)C(C)C)s1
0.63	-0.53	C=CCn1c(SCC(=O)Nc2nnc(C)s2)nnc1-c1cccnc1
0.13	0.08	O=C(O)CSc1nc2ccc(Cl)cc2[nH]1
0.3	-0.12	Cc1nnc(SCCN2CCOCC2)n1-c1cccc(Cl)c1
0.68	-1.3	Cc1cccc(OCc2nnc(SCC(=O)N3CCN(C(=O)c4ccco4)CC3)n2C)c1C
9.4*	-0.09*	COc1cccc(/C=N/NC(=O)CSc2ccccc2C)c1O
0.52	-0.03	CCSc1nc2ccc(OC)cc2cc1C#N
1.2	-0.91	COCCn1cnnc1SCC(=O)Nc1ccc(Br)cc1F
0.39	1.8	CC(=O)c1ccc(NC(=O)CSc2nc3nc(C)cc(C)n3n2)cc1
1.6	0.86	O=C(CSc1ccc(F)cc1)Nc1ccc2c(c1)C(=O)NC2=O
0.43	0.18	CCOC(=O)c1ccccc1NC(=O)COC(=O)CSc1ccccc1
